Screening results: PubChem BioAssay, ICCB-Longwood Screening Facility, Harvard Medical School
Anaer choline gr: growth inhibitors of anaerobic choline-fed gram-negatives, minimal medium, absorbance | calls only | 55,000 tested, 0.2% active | Gram-negative bacterium anaerobic choline minimal medium; active compounds read low; many inactives read as strong as hits in the columns shown;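 active = growth z-score on choline under -2 at 7 or 20 h with little or no fall on glycerol, limits in tiers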;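 also: stock transfer was 300 nL into about 50 µL; the organism is E. coli; final concentration not given here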
Anaer choline gr early: recorded beside Anaer choline gr, whose call it bears; z-score; measured here: choline growth z-score, timepoint 1;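 score of optical density at 7 h as mean of two plates; lower means less growth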
* = called active by the depositor; i = inactive; & = joins results of further samples. These rows are one share of the data; count on the stated rates, not on these rows.

Every second line gives: Anaer choline gr, Anaer choline gr early
COc1ccc(OC)c(NC(=O)Cn2nc3c(Sc4ccccc4)nc4ccccc4n3c2=O)c1
→ i, 0.9
Cc1cc(N2CCOCC2)nc2ccc(NC(=O)Nc3ccc4c(c3)OCCO4)cc12
→ i, -0.82
CCOC(=O)c1c(NC(=O)CS(=O)(=O)c2ccc(C)cc2)sc2c1CCC2
→ i, -0.17
COc1ccc(Cl)cc1NC(=O)N1CCCN(c2ccc(=O)n(-c3ccc(Cl)cc3)n2)CC1
→ i, -0.75
O=C(CC1CCN(C(=O)Nc2ccccc2)CC1)N1CCN(c2ccccn2)CC1
→ i, -1
Cc1nc(-n2[nH]c(C)c(Cc3ccc(Cl)cc3)c2=O)sc1C(=O)N1CCCCC1
→ i, 0.64
CCC(=O)Nc1ccc(C)cc1-c1nnc(SC(CC)C(=O)Nc2ccc(C)cc2C)[nH]c1=O (configuration not stated)
→ i, -1.6
CCOc1ccc(Cc2nccc3cc(OCC)c(OCC)cc23)cc1OCC
→ i, 0.5
Cn1nc(C(=O)N2CCCC(C(=O)NC3CC3)C2)c2c1CCN(C(=O)c1ccccc1F)C2 (configuration not stated)
→ i, 0.37
CCCCOc1ccc(C(=O)Nc2ccc3c(c2)N(S(=O)(=O)c2ccccc2)CCC3)cc1
→ i, 0.71
O=C(CCc1nc(CSc2nc(-c3ccccc3)cs2)no1)Nc1nccs1
→ i, 2
Cc1csc(-c2cc(S(=O)(=O)N(Cc3cccs3)C3CCCC3)c(C)s2)n1
→ i, 0.33
COc1ccc(N2C(=O)CCS2(=O)=O)cc1S(=O)(=O)Nc1cccc(Br)c1
→ i, 0.41
Fc1ccc(-c2noc(-c3ccc(NC4CCCCC4)nn3)n2)cc1
→ i, -0.46
O=C(NCc1cccs1)c1cc2c(s1)CN(C1CC1)C2
→ i, -0.08
C1N2CN3CN1CN(C2)C3
→ i, 0.57&0.07
CCOC(=O)c1c(C)[nH]c(C(=O)N2CCC(CC(=O)NCc3cccnc3)CC2)c1C
→ i, 0.97
CCC1c2ccc(C)n2CCN1C(=O)Nc1ccccc1C(=O)OC (configuration not stated)
→ i, 0.61
COc1ccc(NC(=O)C(C)Sc2nc3ncccc3[nH]2)cc1OC (configuration not stated)
→ i, -0.53
CCOCCCNCc1ccc(-c2ccccc2)o1
→ i, -1.3
CC(C)c1cnc2c(c1SCC(=O)O)c(=O)n(C)c(=O)n2C
→ i, -0.51
Cc1nnc(-c2cc(S(=O)(=O)N3CCOCC3)c[nH]2)o1
→ i, 0.08
CC(C)CCNCC(O)Cn1c2ccc(Br)cc2c2cc(Br)ccc21 (configuration not stated)
→ i, -5.7
CN1CCN(C(=O)c2ccc(-c3ccc(F)cc3)nc2)C(c2ccccc2)C1 (configuration not stated)
→ i, -0.84
Cc1ccc(CNC(=O)Cn2cnc3c(sc4nc(C)cc(C)c43)c2=O)cc1
→ i, -0.12
CCOC(=O)c1ccc2oc(=O)n(C)c2c1
→ i, -0.53
CCOc1ccc2c(c1)cc(C(=O)NCC(C)C)n2C
→ i, 1.4
Cc1ccc(CN2C(=O)c3oc4ccccc4c3OCC2(C)C(=O)NC2CCCC2)cc1 (configuration not stated)
→ i, -0.67
O=C(c1cc2c(s1)CCC(C(=O)N1CCCC1)C2)N1CCCC1 (configuration not stated)
→ i, 0.83
O=c1n(Cc2ccccc2)nc2c(S(=O)(=O)N3CCN(c4ccc(F)cc4)CC3)cccn12
→ i, 0.28

The listing continues:
Every second line gives: Anaer choline gr, Anaer choline gr early
CC1CCN(S(=O)(=O)c2ccc3c(c2)N(CC(=O)NC2CCCCC2)C(=O)CC(C)S3)CC1 (configuration not stated)
→ i, 1.6
Cc1ccc(S(=O)(=O)NCCc2csc(-c3ccc(Cl)cc3)n2)cc1C
→ i, 1.7
CCCN(CCC)S(=O)(=O)c1ccc(C(=O)O)cc1
→ i, 0.27&0.07
O=C(Nc1ccc(C(=O)N2CCCC2)cc1)c1nsc2ccccc12
→ i, -0.79
CN1C(=O)c2ccccc2Sc2cc(-c3noc(Cc4ccccc4Br)n3)ccc21
→ i, 0.85
COc1ccc(-c2nc(CN3CCN(S(=O)(=O)c4ccc(F)cc4)CC3)c(C)o2)cc1
→ i, -0.63
COc1ccc(C2CC(=O)N(c3cccc(Br)c3)C(=O)C2)cc1OC
→ i, 1.1
O=c1n(Cc2cccc(C(F)(F)F)c2)nc2c(S(=O)(=O)N3CCCCC3)cccn12
→ i, 0.72
COc1ccc(-c2nc3ccccc3c3nnc(SCC(=O)N4CCCC4)n23)cc1
→ i, 1.6
Cc1cc(C)cc(C(=O)N2CCN(c3nc(C)cc(N4CCN(C)CC4)n3)CC2)c1
→ i, 0.58
c1ccc(CNc2c3c(nc4nc(-c5ccccc5)nn24)CCCC3)cc1
→ i, 0.63
O=C(NCc1c(-c2ccccc2)nc2n1CCS2)c1ccc(S(=O)(=O)N2CCOCC2)cc1
→ i, 0.76
CCOc1ccc(-n2c(C)c(C)c3c2ncn2nc(CCCN4C(=O)c5ccccc5C4=O)nc32)cc1
→ i, 0.13
Cc1nccn1-c1cc(N2CCCC2)nc2ccnn12
→ i, 0.25
COc1ccc(C(=O)N2c3ccccc3N=C(c3ccccc3)CC2c2ccccc2)cc1 (configuration not stated)
→ i, 0.23
CN(C)S(=O)(=O)NCCOc1ccc(-c2ccccc2)nn1
→ i, -1.9
O=S(=O)(NCc1cccs1)c1cc(-c2noc(C3CC3)n2)cs1
→ i, -2
CCn1nccc1C1CCCN1S(=O)(=O)c1cccc2nsnc12 (configuration not stated)
→ i, -0.47
O=C(Nc1cccc(Cl)c1)N1CCSc2ncccc21
→ i, 0.32
O=C(Nc1ccc(F)cc1)c1ccc(Oc2ccnc(-c3ccc(F)cc3)n2)cc1
→ i, -1.5
Cc1cccc(CC(=O)NCCc2sc3nc(-c4ccc(F)cc4)nn3c2C)c1
→ i, -0.28
COc1cc(-c2noc(-c3ccccc3)n2)ccc1OCC(=O)NCCc1ccccc1
→ i, 0.36
CCC(=O)Nc1cc(Cl)ccc1OCc1cc(=O)n2cc(C)sc2n1
→ i, -1.5
C[C@H]([C@H](C)N1CC(=O)NC(=O)C1)N1CC(=O)NC(=O)C1
→ i, 0.13
Cc1c(CCNC(=O)c2ccc(F)cc2)sc2nc(-c3ccc(Cl)cc3)nn12
→ i, 0.21
O=C(O)P(=O)(O)O
→ i, 0.75
Cc1cccc(NC(=O)Nc2ccc(SCc3cc(=O)n4c(ncn4C(C)C)n3)cc2)c1
→ i, 0.08
COc1cc(OC)cc(-c2noc(CCn3c(=O)[nH]c4cc5c(cc4c3=O)OCO5)n2)c1
→ i, 0.75
Cc1ccccc1Cn1c2ccccc2c2ncn(Cc3ccccc3Cl)c(=O)c21
→ i, 0.61
O=c1[nH]c(N2CCC3(CC2)OCCO3)nc2c(-c3ccc(F)cc3)csc12
→ i, 2.3

Next section.
Every second line gives: Anaer choline gr, Anaer choline gr early
COc1ccc(S(=O)(=O)N2CCCC2c2cc(C(C)C)no2)cc1OC (configuration not stated)
→ i, 0.55
O=C(CCc1nc(-c2ccc(N3CCCC3)cc2)no1)Nc1ccc2c(c1)OCCO2
→ i, 0.73
Cc1cc(C)cc(NC(=O)CC2CCN(C(=O)c3cn(-c4ccccc4)nc3-c3ccccc3)CC2)c1
→ i, 0.22
CC(C)Oc1ccccc1-c1nn2c(=O)c(NC(=O)c3ccc(C(C)(C)C)cc3)cnc2o1
→ i, 0.58
O=C1Nc2ccccc2OCC1CC(=O)N1CCc2ccccc21 (configuration not stated)
→ i, -0.2
CCCc1cc(C2CCCN2S(=O)(=O)c2ccc(Cl)cc2)no1 (configuration not stated)
→ i, 0.26
CCc1ccc(C(=O)N2CCN(c3ccnc(-c4ccc(C)cc4)n3)CC2)cc1
→ i, -2.2
CC(C)N(Cc1ccccc1)C(=O)c1cccc(N2C(=O)CCS2(=O)=O)c1
→ i, -1.1
Cc1ccc2oc(C(=O)N3CCC(CCN4CCCC4)CC3)cc(=O)c2c1
→ i, -0.89
Cc1cccc(NC(=O)c2cnc3ccccn3c2=O)c1C
→ i, 0.22
Cc1cc(C)n2nc(NCc3ccc(F)cc3)nc2n1
→ i, -0.71
CN(CCN1CCOCC1)C1CCN(S(=O)(=O)c2ccc3[nH]c(=O)ccc3c2)CC1
→ i, 1.2
COc1ccc(-c2noc(-c3cnn4c(C)c(Cc5ccccc5C)c(C)nc34)n2)c(OC)c1
→ i, -1.2
CCC[C@@H]1C[C@@H](C(=O)N[C@@H]([C@H]2O[C@H](SC)[C@H](O)[C@@H](O)[C@H]2O)[C@@H](C)O)N(C)C1
→ i, -1.5&1
CCOC(=O)c1ccc(NC(=O)Cn2cc(S(=O)(=O)Cc3ccccc3F)c3ccccc32)cc1
→ i, 1.8
Cc1ccc(CN2CCN(C3CCN(S(=O)(=O)c4c(C)cc(C)cc4C)CC3)C(=O)C2=O)cc1
→ i, 1.8
Cc1cc(C)cc(NS(=O)(=O)c2cc(-c3ccc(=O)[nH]n3)ccc2Cl)c1
→ i, -0.28
CCOC(=O)c1c(-c2ccc(Br)cc2)csc1NC(=O)c1sc(C)nc1C
→ i, 1.5
O=S(=O)(c1cccc(F)c1)N1CCC(c2noc(-c3cccc(F)c3)n2)CC1
→ i, -1.1
Cc1cccc(-c2nccc(Nc3ccc(C(=O)N4CCC(C)CC4)cc3)n2)c1
→ i, 0.17
CCC(=O)Nc1cc(S(=O)(=O)CC)ccc1OCc1cc(=O)n2oc(C)cc2n1
→ i, -0.75
COc1ccc(OC)c(CNc2nc3ccccc3nc2C(F)(F)F)c1
→ i, 0.4
CCN1CCN(CC2CCN(S(=O)(=O)Cc3ccc(Cl)cc3)CC2)CC1
→ i, -0.83
Cc1nc(CNC(=O)[C@H]2CSCN2S(=O)(=O)c2ccccc2)cs1
→ i, -0.36
COc1ccc(NC(=O)CN(C)C(=O)c2ccc3c(c2)nnn3C)cc1
→ i, 0.41
O=C(NCCc1ccccc1)c1cnn2c(C(F)(F)F)cc(-c3ccccc3)nc12
→ i, 0.98
CNC(=O)c1ccc(Cn2c(=O)c3cc(OC)c(OC)cc3n(CC(=O)NC(C)C)c2=O)cc1
→ i, 1.4
COc1ccnc2c1c(=O)n(CC(=O)Nc1ccccc1)c(=O)n2C
→ i, 0.52
O=C(CCc1nc(-c2ccccc2)no1)NCc1noc(-c2ccc(F)cc2)n1
→ i, 0.12
COc1ccc(-c2[nH]ncc2CN2CCCC2c2c(C)noc2C)cc1OC (configuration not stated)
→ i, -0.02

Two entries from above, reformatted.
| SMILES | Anaer choline gr | Anaer choline gr early |
| --- | --- | --- |
| COc1ccc(OC)c(CNc2nc3ccccc3nc2C(F)(F)F)c1 | i | 0.4 |
| CNC(=O)c1ccc(Cn2c(=O)c3cc(OC)c(OC)cc3n(CC(=O)NC(C)C)c2=O)cc1 | i | 1.4 |

Carrying on.
Every second line gives: Anaer choline gr, Anaer choline gr early
Cc1ccc(NS(=O)(=O)c2cn(C)c(C)n2)cc1Cl
→ i, 0.31
O=C(COc1ccccc1)NCCn1c(-c2ccncc2)nc2cccnc21
→ i, 0.09
COc1ccc(NC(=O)c2ccccc2-c2nc(-c3ccccc3)no2)c(OC)c1
→ i, 0.56
O=C(O)CCC/C=C\CC1C2CCC(O2)C1CNNC(=O)Nc1ccccc1 (configuration not stated)
→ i, -0.87&0.49
Cc1cc(NCCCN2CCOCC2)n2nc(C(F)(F)F)c(-c3ccc(F)cc3)c2n1
→ i, 0.22
O=S(=O)(NC1CCCCC1)c1ccc(-c2nnc(C3CCCC3)o2)o1
→ i, 0.93
O=C(Nc1ccc(F)cc1F)N1CCN(Cc2nc3cccnc3n2-c2ccccc2)CC1
→ i, -0.38
CC(C)CCNC(=O)C1CCN(C(=O)c2cccc(NS(=O)(=O)c3ccc(F)cc3)c2)CC1
→ i, -0.51
CCOC(=O)CNC(=O)CCc1c(C)n(C)c2cc(-c3ccccc3C)nn2c1=O
→ i, 0.55
CN(C)S(=O)(=O)c1ccc2c(c1)c(=O)c(C(=O)N1CCC(Cc3ccccc3)CC1)cn2C
→ i, 0.09
O=C(NCCN1CCOCC1)C1=Cc2ccccc2OC1
→ i, -1.9
CN(CC1CCCO1)S(=O)(=O)c1ccc(C(=O)Nc2nc3ccc(F)cc3s2)cc1 (configuration not stated)
→ i, 0.35
Cn1c(=O)c2sccc2n2c(SCc3cccc(F)c3)nnc12
→ i, -0.88
CCn1c(=O)c(-c2noc(C(=O)NCc3ccc(F)cc3)n2)nn(-c2ccccc2)c1=O
→ i, -0.33
O=C(CCC(=O)N1CCCCc2ccccc21)Nc1ccc(Cl)cc1
→ i, 0.77
CCCn1cnc2c(-c3ccc(C)cc3)csc2c1=O
→ i, -0.03
COc1ccc(N2C(=O)C3N=NN(c4cccc(OC)c4)C3C2=O)cc1 (configuration not stated)
→ i, -0.18
COCCCN1CCn2c(nc3cc(NS(C)(=O)=O)ccc32)C1
→ i, -0.87
CCCCn1c(CN2CCC(C)CC2)nc2c1c(=O)n(C)c(=O)n2C
→ i, 0.8
CCOC(=O)c1oc2ccccc2c1NC(=O)C1c2ccccc2Oc2ccccc21
→ i, -0.64
O=C(CCC(=O)N1CCCN(c2nc3cccnc3s2)CC1)NCCN1CCCCC1
→ i, 0.76
CCc1onc(C)c1C1CCCN1C(=O)c1cc(C(F)(F)F)n(C)n1 (configuration not stated)
→ i, 0.93
CCc1ccc(NCc2cc(=O)n3[nH]c(NCc4ccc(C(C)C)cc4)nc3n2)cc1
→ i, 0.42
CC(C)Nc1ncnc2c1cnn2-c1ccc(F)cc1
→ i, -0.33

Five entries already listed, sorted by length of the SMILES, smallest number first:
Every second line gives: Anaer choline gr, Anaer choline gr early
O=C(NCCN1CCOCC1)C1=Cc2ccccc2OC1
→ i, -1.9
Cn1c(=O)c2sccc2n2c(SCc3cccc(F)c3)nnc12
→ i, -0.88
O=C(CCC(=O)N1CCCN(c2nc3cccnc3s2)CC1)NCCN1CCCCC1
→ i, 0.76
CCOC(=O)CNC(=O)CCc1c(C)n(C)c2cc(-c3ccccc3C)nn2c1=O
→ i, 0.55
CCn1c(=O)c(-c2noc(C(=O)NCc3ccc(F)cc3)n2)nn(-c2ccccc2)c1=O
→ i, -0.33
